# Ecoli rRNA inh – reduced GFP signal of wild-type E. coli, primary screen, bacterial rRNA inhibitor project, GFP/RFP fluorescence, OD600, single point. 350,000 tested, 1.6% active. GFP signal change (wild-type ribosome), % (no concentration beside the values). AID 720706, 2013. E. coli WT GFP vs humanized-ribosome RFP mutants, 24 h; active compounds read low; DMSO median 0, no signal -100;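 active = significant combined selectivity score with lowered wild-type GFP, culture density cut under 30%, mutant RFP and density less affected; inactive = any of these conditions unmet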; note: one replicate is shown; some compounds called inactive have numbers as strong as hits
# MLL AF4-AF9 inh – inhibitors of AF4 peptide binding to AF9, primary screen, biochemical, AlphaScreen, biotin-AF4 peptide, FLAG-AF9, single point | Protein AF-9 (Homo sapiens), P42568 | inhibition, % at 10 µM | 350,000 tested, 0.47% active;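 active = every replicate reaching a set inhibition limit, whatever the replicate mean, cut at about 25% in these data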;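 note: 0% = plate neutral control median and 100% = total signal loss; the record names both 10 and 1 µM as test concentration; the first replicate is given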
# Target sequence (P42568 whole entry, looked up): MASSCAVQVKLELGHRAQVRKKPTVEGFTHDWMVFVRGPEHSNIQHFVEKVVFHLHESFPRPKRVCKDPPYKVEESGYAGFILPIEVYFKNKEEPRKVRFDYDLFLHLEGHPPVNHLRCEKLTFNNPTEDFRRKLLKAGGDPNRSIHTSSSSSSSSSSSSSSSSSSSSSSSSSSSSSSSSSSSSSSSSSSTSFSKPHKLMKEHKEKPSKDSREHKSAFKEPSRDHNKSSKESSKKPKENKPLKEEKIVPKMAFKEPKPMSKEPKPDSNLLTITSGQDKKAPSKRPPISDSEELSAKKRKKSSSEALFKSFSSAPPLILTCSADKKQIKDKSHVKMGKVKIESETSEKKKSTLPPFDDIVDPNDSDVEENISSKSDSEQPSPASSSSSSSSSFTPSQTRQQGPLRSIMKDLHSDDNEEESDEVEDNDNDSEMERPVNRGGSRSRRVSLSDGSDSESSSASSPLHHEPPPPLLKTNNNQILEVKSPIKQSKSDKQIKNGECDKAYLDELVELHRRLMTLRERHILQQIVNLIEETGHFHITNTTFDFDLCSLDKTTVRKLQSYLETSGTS
# FGF22 binding – binders of human FGF22 protein, primary screen, FGF22 synaptogenesis inhibitor project, biophysical, thermal shift, single point; Fibroblast growth factor 22 (Homo sapiens), Q9HCT0; recombinant FGF22 thermal shift, SYPRO orange fluorescence; percent of sucrose octasulfate shift, DMSO zero; calls only at 9.99 µM; 340,000 tested, 1.5% active; AID 651658, 2012;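 active = melting point raised past a set limit in the mean and every replicate; three in four hits are not shown here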
# Target sequence (Q9HCT0 whole entry, looked up): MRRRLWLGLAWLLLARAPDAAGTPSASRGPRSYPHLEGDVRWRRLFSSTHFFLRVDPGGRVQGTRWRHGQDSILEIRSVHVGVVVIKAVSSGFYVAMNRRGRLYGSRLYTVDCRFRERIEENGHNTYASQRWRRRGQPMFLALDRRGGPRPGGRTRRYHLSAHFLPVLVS
# Ecoli rRNA inh OD600 – recorded beside Ecoli rRNA inh, whose call it bears; OD600 change, %; measured here: OD600 growth;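 optical density of the mix in the first replicate; 0 = DMSO median and -100 = no signal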
# Ecoli rRNA inh RFP – also measured in Ecoli rRNA inh; calls as there; RFP signal change, %; measured here: RFP humanized mutant strains;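 first replicate; 0 = DMSO median and -100 = no signal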
# * marks the source's active call; other numbers are inactive results; i = inactive; & = joins results of further samples. An excerpt; the hit share may differ from the screen's.
SMILES,Ecoli rRNA inh,Ecoli rRNA inh OD600,Ecoli rRNA inh RFP,MLL AF4-AF9 inh,FGF22 binding
CCCCC[C@@H](C)N1C[C@@H](COCc2ccccc2)Oc2cc(N3CC[C@@H](N(C)C)C3)ccc2S1(=O)=O,-32,-64,3.3,12,i
C[C@@H]1CN([C@H](C)CO)C(=O)Cc2cc(NC(=O)Cc3cn(C)c4ccccc34)ccc2O[C@H]1CN(C)C(=O)Nc1cccc2ccccc12,-1,7,0.2,-1.8,i
CNC[C@H]1Oc2ccc(NC(=O)Cc3cn(C)c4ccccc34)cc2CC(=O)N([C@H](C)CO)C[C@H]1C,5,0,-0.2,2.5,i
Cc1ccc(S(=O)(=O)N(C)C[C@@H]2Oc3cc(Br)ccc3S(=O)(=O)N([C@H](C)CO)C[C@@H]2C)cc1,-2,-20,-1.0,1.4,i
CC(=O)Nc1cccc(-c2ccnc3c2CC(C)(C(=O)Nc2cccc(NS(C)(=O)=O)c2)O3)c1 (centres undefined),-6,-6,1.4,-0.2,i
COc1cccc(S(=O)(=O)N2CCC3(CC2)CN(C(=O)Nc2cccc(F)c2)[C@@H](CO)c2[nH]c4cc(OC)ccc4c23)c1,3,-2,-2.6,0.7,i
COc1ccc(S(=O)(=O)Nc2ccc3c(c2)C(=O)N([C@@H](C)CO)C[C@@H](C)[C@H](CN(C)C(=O)Nc2ccccc2)O3)cc1,4,9,-0.4,1.8,i
COc1cccc(CNC(=O)[C@H]2N[C@H]3c4ccc(/C=C/c5ccccc5)c(=O)n4C[C@H]3[C@@H]2CO)c1,-16,-22,2.6,-6.7,i
CCC(=O)N(C)C[C@H]1Oc2cc(C#CCOC)ccc2S(=O)(=O)N([C@@H](C)CO)C[C@H]1C,1,8,-3.4,0.5,i
C[C@@H]1CN([C@@H](C)CO)C(=O)c2cc(-c3ccc(C(=O)N(C)C)cc3)cnc2O[C@H]1CN(C)C,4,-2,-1.3,-1.9,i
c1ccc(COc2cccc(-c3cc4nc(NCCc5ccncc5)ccn4n3)c2)cc1,-32,-58,16,1.3,i
C[C@@H]1CN([C@@H](C)CO)C(=O)CCCn2nncc2CO[C@@H]1CN(C)S(=O)(=O)c1ccc(Oc2ccccc2)nc1,1&-4,-11&-5,-3.2&-1.2,1.3&-0.4,i
CC(C)NC(=O)Nc1cccc2c1O[C@H](CN(C)Cc1ccc(-c3ccccc3)cc1)[C@H](C)CN([C@H](C)CO)C2=O,-2,-1,-0.6,3.0,i
COC(=O)[C@@H](NCc1ccc(B(O)O)cc1)C(C)C,6,8,0.2,1.2,i
O=Nc1ccc(Br)cn1,2,12,-1.2,-4.5,i
O=C1NC[C@H](CCCCN2CCN(Cc3ccccc3)C(=O)C2=O)N(CCc2ccccc2)C1=O,25,9,0.1,-1.0,i
COc1ccc(-c2cc3nc(NCc4ccc(N(C)C)cc4)n(C)c(=O)c3s2)cc1OC,-1,14,13,16,i
CC(C)NC(=O)N1CCCCN2[C@H](C1)[C@@H](c1ccc(C#Cc3ccccc3F)cc1)[C@@H]2CO,-60,-72,-12,-6.5,i
O=C(Nc1ccc2c(c1)[C@@H]1C[C@@H](CC(=O)N3CCOCC3)O[C@H](CO)[C@@H]1O2)NC1CCCC1,2,6,-1.7,-1.5,i
C[C@@H]1CN([C@@H](C)CO)C(=O)c2cc(NC(=O)Cc3cn(C)c4ccccc34)ccc2O[C@H]1CN(C)C(=O)Nc1cccc2ccccc12,0,-1,1.0,-0.3,i
C[C@@H]1CN([C@H](C)CO)C(=O)c2cc(NC(=O)Nc3cccc4ccccc34)ccc2O[C@@H]1CN(C)S(=O)(=O)c1ccc(Cl)cc1,-1,5,3.9,-0.1,i
OC[C@@H]1CN(CCN2CCOCC2)C[C@H](n2cnc3c(NC4CCCC4)ncnc32)O1,15,11,-0.7,-8.2,i
CO[C@H]1CN(C)C(=O)c2cc(NC(=O)C3CC3)ccc2OC[C@H](C)N(C(=O)C2CCOCC2)C[C@@H]1C,4,20,-3.8,-0.7,i
O=C(Nc1ccccc1)c1cc(C2CCCCN2C(=O)CCCc2ccccc2)on1 (centres undefined),-10,-12,2.8,-6.3,i
COc1ccc(NC(=O)N(C)C[C@@H]2Oc3ccc(NC(=O)CCC(F)(F)F)cc3CC(=O)N([C@H](C)CO)C[C@H]2C)cc1,4,6,0.5,-3.2,i
Cc1cccc(NC(=O)COC(=O)c2nn(-c3ccccc3C(F)(F)F)cc2O)c1C,-4,2,-1.7,-0.7,i
O=C(C[C@H]1C[C@@H]2c3cc(NC(=O)C4CCC4)ccc3O[C@@H]2[C@H](CO)O1)NC1CCCCC1,-2&3,9&-1,2.8&0.6,-0.6&-4.1,i
C[C@@H]1CN([C@@H](C)CO)C(=O)Cc2cc(NC(=O)CCN3CCOCC3)ccc2O[C@H]1CN(C)S(=O)(=O)c1ccc(Cl)cc1,-2,3,0.2,4.5,i
O=C(CC1CC1)N[C@H]1CC[C@H](CCNS(=O)(=O)c2ccc(F)cc2)O[C@@H]1CO,1,-4,-0.9,-1.3,i
O=C(Nc1ccc2c(c1)[C@H]1C[C@@H](CC(=O)N3CCCCC3)O[C@@H](CO)[C@H]1O2)NC1CCCCC1,-3,-3,-0.8,-3.0,i
C[C@H](CO)N1C[C@H](C)[C@H](CN(C)S(=O)(=O)c2ccccc2)Oc2ncc(/C=C/c3ccccc3)cc2C1=O,-1,20,5.5,-1.1&1.8,i
COc1cccc(CNC(=O)[C@@H]2[C@@H](CO)[C@@H]3Cn4c(ccc(-c5cccnc5)c4=O)[C@H]2N3C(C)=O)c1,1,4,-0.1,0.4,i
CN(C)C(=O)[C@@H]1[C@@H](CO)[C@@H]2Cn3c(ccc(-c4ccccc4)c3=O)[C@H]1N2C(=O)C1CCC1,1,5,-1.2,8.6,i
Cc1cccc(S(=O)(=O)N2CC[C@@H]3[C@@H](CO)Nc4ccc(C#Cc5ccc(F)cc5)cc4[C@@H]32)c1,-3,6,-1.5,-0.5,i
O=C(C[C@@H]1CC[C@@H](NC(=O)Nc2cc(F)ccc2F)[C@H](CO)O1)NCc1ccncn1,0,5,-0.2,-2.7,i
C[C@@H]1CN([C@@H](C)CO)C(=O)c2cc(NC(=O)CCN3CCOCC3)ccc2O[C@@H]1CN(C)C(=O)NC1CCCCC1,1,14,-0.5,-1.3,i
C[C@@H]1CN([C@H](C)CO)C(=O)Cc2cc(NC(=O)Nc3ccc4c(c3)OCO4)ccc2O[C@H]1CN(C)Cc1ccc(-c2ccccc2)cc1,-2,0,1.1,2.1,i
CO[C@H]1CN(C)C(=O)c2ccc(NC(=O)c3cccc(F)c3)cc2OC[C@H](C)NC[C@H]1C,3,5,-1.5,-1.3,i
C[C@@H]1CN([C@@H](C)CO)C(=O)Cc2cc(NC(=O)NC3CCCCC3)ccc2O[C@@H]1CN(C)S(=O)(=O)c1cn(C)cn1,6,4,-0.4,-10.0,i
N#Cc1c(-c2ccc(F)cc2)c(-c2ccc(F)cc2)nn(CCO)c1=O,-4,-12,-4.3,0.2,i
COc1ccc(S(=O)(=O)N(C)C[C@@H]2OCCCC[C@H](C)Oc3ccc(NC(=O)Nc4cccc5ccccc45)cc3C(=O)N([C@H](C)CO)C[C@H]2C)cc1,1,1,-2.1,-14,i
CCC(=O)N(C)C[C@H]1Oc2cc(-c3ccc(OC)cc3)ccc2S(=O)(=O)N([C@H](C)CO)C[C@H]1C,-4,-4,-2.5,-1.6,i
CC(C)C#Cc1ccc2c(c1)O[C@H](CN(C)C(=O)Nc1ccccc1)[C@H](C)CN([C@H](C)CO)S2(=O)=O,-2,-17,3.8,1.1,i
COc1cccc(CNC(=O)[C@@H]2CCCN2C(=O)[C@@H]2CCCN2C(=O)c2ccccc2)c1,7,11,-1.0,2.6,i
O=C(C[C@H]1CC[C@H](NC(=O)Nc2ccc3c(c2)OCO3)[C@H](CO)O1)NCc1ccc(Cl)cc1,-1,0,-0.9,2.7,i
COC(=O)C[C@@H]1CC[C@@H]2[C@@H](COc3ccc(NC(=O)Nc4c(C)noc4C)cc3C(=O)N2C)O1,4,0,-1.5,0.0,i
COc1ccc2c3c(n(C)c2c1)[C@H](CO)N(C)CC31CN(S(=O)(=O)c2cn(C)cn2)C1,3,5,-2.4,-2.5,i
CCC(=O)N[C@H]1CC[C@H](CCn2cc(CN(C)C)nn2)O[C@@H]1CO,-1,10,0.3,-0.2,i
Cc1ccc(S(=O)(=O)NCC[C@H]2CC[C@H](NC(=O)c3ccccn3)[C@H](CO)O2)cc1,-7,-7,5.2,1.1,i
CO[C@H]1CN(C)C(=O)c2cc(NS(=O)(=O)c3ccccc3C)ccc2OC[C@H](C)NC[C@H]1C,3,1,-0.6,-0.1,i
O=C1CC[C@@H](C(=O)N2CSC[C@@H]2C(=O)Nc2cccc(C(F)(F)F)c2)N1,0,-7,-2.8,2.0,i
COc1ccc(NC(=O)N2CC3(C2)CN(C(C)=O)[C@H](CO)c2[nH]c4cc(OC)ccc4c23)cc1,2,3,0.7,0.1,i
C[C@@H]1CN([C@@H](C)CO)C(=O)c2cccc(NS(=O)(=O)c3ccc(Cl)cc3)c2O[C@H]1CN(C)Cc1ccc(C(=O)O)cc1,3,6,-1.0,-0.4,i
COc1ccc(CN(C)C[C@@H]2Oc3ccc(NS(C)(=O)=O)cc3CC(=O)N([C@H](C)CO)C[C@H]2C)cc1,0,2,-2.0,2.4,i
C[C@H](CO)N1C[C@H](C)[C@H](CN(C)C(=O)Nc2ccccc2)Oc2c(NC(=O)C3CC3)cccc2C1=O,3,-2,-2.5,-2.9,i
CN1C(=O)c2cc(NC(=O)C3CCCCC3)ccc2OC[C@H]2O[C@H](CC(=O)NCC3CCCCC3)CC[C@@H]21,-3,-1,10,-2.8,i
C[C@H]1CN([C@@H](C)CO)C(=O)Cc2cc(NS(C)(=O)=O)ccc2O[C@H]1CN(C)C(=O)NC1CCCCC1,6,9,-0.4,-1.7,i
COc1ccccc1-c1ccccc1C1=CC(=O)CC(C)(C)C1=O,-22,-26,-4.5,12,i
N#C[C@@H]1[C@H](c2ccccc2-c2cccc(F)c2)[C@@H](CO)N1C(=O)CN1CCOCC1,5,3,1.8,-3.0,i
Cn1cnc(S(=O)(=O)N[C@H]2CC[C@@H](CC(=O)Nc3ccccc3)O[C@@H]2CO)c1,3,1,-0.8,-2.9,i

# Other records
SMILES,Ecoli rRNA inh,Ecoli rRNA inh OD600,Ecoli rRNA inh RFP,MLL AF4-AF9 inh,FGF22 binding
CO[C@@H]1CN(C)C(=O)c2cc(NC(=O)c3ccc(F)cc3)ccc2OC[C@H](C)N(C(=O)c2ccc(F)cc2)C[C@H]1C,-1,1,0.6,2.4,i
Cc1cc(C(=O)Nc2cccc3c2O[C@H](CN(C)C(=O)Nc2ccccc2)[C@H](C)CN([C@H](C)CO)C3=O)n(C)n1,2,-1,-1.9,-2.6,i
Cc1noc(C)c1S(=O)(=O)N(C)C[C@@H]1Oc2ccc(NC(=O)Nc3ccc4c(c3)OCO4)cc2CC(=O)N([C@H](C)CO)C[C@@H]1C,8,-8,2.2,7.7,i
CC(C)NC(=O)Nc1ccc2c(c1)C(=O)N([C@H](C)CO)C[C@@H](C)[C@@H](CN(C)Cc1ccc3c(c1)OCO3)O2,2,7,-0.4,-2.2,i
Cc1noc(C)c1S(=O)(=O)Nc1ccc2c(c1)CC(=O)N([C@@H](C)CO)C[C@@H](C)[C@@H](CN(C)S(=O)(=O)c1cccs1)O2,2,2,-0.7,0.3,i
C[C@@H]1CN([C@H](C)CO)C(=O)Cc2cc(NS(C)(=O)=O)ccc2O[C@@H]1CN(C)C(=O)NC1CCCCC1,4,11,-4.3,-1.7,i
C[C@H]1CN([C@@H](C)CO)C(=O)c2cc(-c3ccccc3)cnc2O[C@@H]1CN(C)Cc1ccccc1,-2,-8,1.1,0.9,i
C[C@@H]1CN([C@@H](C)CO)C(=O)c2cc(NC(=O)Nc3ccccc3)ccc2O[C@@H](C)CCCCO[C@H]1CN(C)C(=O)CCC(F)(F)F,0,1,-1.8,-0.9,i

# Screening results (PubChem BioAssay)
